# gsp agonist = gsp mutant agonism; 340,000 tested, 0.13% active; gsp mutant cells, cAMP HTRF, 30 min; control for the full effect not named in the record; Potency, µM (titrated, usually from 76.9 µM), inactives show at the top dose activation (cAMP increase), most hits filed as activators; AID 624287; active = well fitted activation curve with a large enough effect; inconclusive = small, poorly fitted or top-dose-only effect, or another doubt; inactive = no such curve, though single readings can be large or run the other way; cell line not stated here;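 note: phosphodiesterase inhibitor Ro 20-1724 added with compounds to block cAMP breakdown; potency is the fitted concentration of half-maximal effect; nearly all actives have a fitted effect of over 60% in size; about a fifth of the inactives were tested at one dose only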
#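 Cells stably selected in G418 were plated at 2000/well, grown 16-24 hr, then given compounds in DMSO with the PDE inhibitor […] (300 uM solution added) for 30 min at 37C; cAMP was read by HTRF.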
# Six1-Eya2 inh = Six1/Eya2 interaction inhibition; Q15475+O00167; AlphaScreen GST-Six1/His-Eya2 binding, biochemical; stronger effect = lower value; control for the full effect not named in the record; activity change, % (no concentration beside the values); 360,000 tested, 0.56% active; in the data active = activity change below about -65%; inconclusive = about -30% to -65%; inactive = above about -30%; note: % is set by controls: 0 for no effect and ±100 for the full control effect; compound concentration not given in the record
#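 AlphaScreen luminescence read after one hour at 37 °C in darkness. Pin-transferred compounds met GST-Six1 and His-Eya2 protein (5X stock 250 nM/500 nM) plus glutathione donor and Ni-chelate acceptor beads (5X, 50 ug/mL).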
# CtBP-E1A inh = blocks the CtBP interaction with E1A; AlphaScreen GST-E1A/His-CtBP binding, 1536-well; stronger effect = lower value; control for the full effect not named in the record; activity change, % (concentration not given with the values); 340,000 tested, 0.49% active; in the data active means activity change below about -65%; inconclusive means about -30% to -65%; inactive means above about -30%; note: % is set by controls: 0 for no effect and ±100 for the full control effect
#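 Steps: dispense buffer (Tris pH 8.0, NaCl 300 mM, TCEP 1 mM, BSA, Tween 20); add 5X protein mix (GST-E1A, His-CtBP, 125 nM each); pin 23 nL compound; 2 h at 37 °C, dark; add 5X beads (50 ug/mL); 1 h; read.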
# D2 agonist = human D2 receptor agonism in beta-arrestin assay | activation, % (no concentration beside the values) | 360,000 tested, 0.084% active | DiscoveRx PathHunter D2 beta-arrestin, luminescence, 90 min; 100% = 57 uM dopamine signal | P14416; in the data active = activation above about 40%; inconclusive = about 15% to 40%; inactive = below about 15%; note: compound concentration not given in the record; the text of the record calls up to 30% inactive
# Target sequence (P14416 whole entry, looked up): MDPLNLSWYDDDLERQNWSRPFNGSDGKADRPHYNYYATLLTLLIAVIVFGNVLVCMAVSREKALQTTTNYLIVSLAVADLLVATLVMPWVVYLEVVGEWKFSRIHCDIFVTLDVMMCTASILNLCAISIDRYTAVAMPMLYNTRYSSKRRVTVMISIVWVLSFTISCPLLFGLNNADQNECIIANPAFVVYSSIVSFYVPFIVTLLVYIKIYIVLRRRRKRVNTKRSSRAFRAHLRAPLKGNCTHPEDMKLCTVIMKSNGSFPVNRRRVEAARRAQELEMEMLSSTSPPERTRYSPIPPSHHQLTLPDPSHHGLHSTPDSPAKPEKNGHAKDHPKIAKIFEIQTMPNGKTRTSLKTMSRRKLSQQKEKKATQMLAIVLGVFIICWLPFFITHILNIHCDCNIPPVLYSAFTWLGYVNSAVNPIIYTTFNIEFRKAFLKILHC
#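 DiscoveRx PathHunter D2 beta-arrestin cells (2,100/well) attached overnight, then compound-stimulated 90 min at 37 C in HBSS/10 mM HEPES/0.1% Tween-20 buffer; beta-galactosidase complementation read by luminescence after 1 h at ambient temperature. Dopamine 57 uM final (EC100) as control.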
# D2 potentiator = human D2 receptor positive allosteric modulation; P14416; DiscoveRx D2 beta-arrestin cells, luminescence, 90 min; 100% = 57 uM dopamine signal; potentiation, % (test concentration not listed); 360,000 tested, 0.23% active; AID 624464; active = potentiation of 50% or more; inconclusive = 30% to 50%; inactive = 30% or less;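 note: compound concentration not given in the record; tested on top of an EC20 dose of dopamine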
#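 PathHunter beta-arrestin assay in DiscoveRx D2 cells. Compounds were added with an EC20 of dopamine (50 nM final) for 90 min at 37 deg C. Luminescence was read 1 h after detection reagent, with 57 uM dopamine as the EC100 control.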
# gsp antagonist = antagonists of gsp mutant (McCune-Albright syndrome); gsp-mutant cells, cAMP HTRF, 30 min; control for the full effect not named in the record; AID 624288; 340,000 tested, 0.4% active; Potency, µM (top dose mostly 76.9 µM), inactives show at the highest dose activity change, negative = inhibition, hits mostly inhibitors; active = falling curve of any shape with a large fitted effect; inconclusive = falling curve, mostly with a smaller effect; inactive = flat or rising curve; cell line not stated here;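 note: intracellular cAMP measured with PDE inhibitor Ro 20-1724 present during compound exposure; potency is the fitted concentration of half-maximal effect; % is set by controls: 0 for no effect and ±100 for the full control effect; nearly all actives have a fitted effect of over 65% in size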
#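 HTRF cAMP read-out (cAMP-d2 plus anti-cAMP antibody-K in lysis buffer, 30 min RT). Before lysis, cells are exposed to compounds with […] for 30 min at 37C in DPBS containing Ca/Mg, BSA and Tween 20.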
# * marks the source's active call; other numbers are inactive results; ? = inconclusive; nt = no result given; [ ] = remark or other dose. Rows were taken by chance (roughly 1.4% active in at least one column).
SMILES	gsp agonist	Six1-Eya2 inh	CtBP-E1A inh	D2 agonist	D2 potentiator	gsp antagonist
Cc1nc(-c2cccc(NC(=O)COc3ccc(Cl)cc3)c2)cs1	-24%	-1	8	-3.8	-54	?
CCC(C)Nc1ccc(NC(C)CC)cc1 (stereo not given)	nt	-1	?	7.4	-2	-11%
O=C(NCCc1ccccc1)C1CCN(C(=O)c2sccc2-n2cccc2)CC1	-29%	0	1	-6.4	-8	-4%
Cc1ccn2c(Cc3ccccc3)c(-c3ccccc3)nc2c1	3%	0	4	-9.9	1	nt
Cc1cnc(NC(=O)COc2ccc3c(c2)CCC3)s1	1%	-4	-10	-6.4	-8	8%
CN(Cc1c(C(=O)N/N=C/c2cc(F)ccc2F)nnn1-c1nonc1N)C1CCCCC1	-6%	3	12	-4.0	-21	11%
CC(C)[C@H](NC(=O)C1CCN(S(=O)(=O)c2ccccc2)CC1)C(=O)NCc1ccncc1	?	0	5	-4.9	-9	5%
O=C(Nc1ccc2nsnc2c1)c1cccs1	7%	12	9	-1.5	11	11%
COC(=O)C1=CN(CCCN2CCCC2=O)C=C(C(=O)OC)C1c1cccs1	26%	8	1	0.5	-12	2%
CCC(=O)c1ccc(N2CCN(C(=O)c3ccc(Br)cc3)CC2)c(F)c1	-9%	0	1	-0.8	-15	-11%
COc1ccc(NC(=O)CN2C(=O)C(C)Oc3ccccc32)cc1 (stereo not given)	-49%[inhibitor]	6	14	0.0	-4	12%
O=C(Nc1ccc(Cl)c(S(=O)(=O)N2CCOCC2)c1)c1cccs1	-19%[15.4 µM]	1	4	-0.6	-6	-11%

# Compound profiles (already shown):
# Cc1nc(-c2cccc(NC(=O)COc3ccc(Cl)cc3)c2)cs1 across the screens: gsp agonist = -24%; Six1-Eya2 inh = -1; CtBP-E1A inh = 8; D2 agonist = -3.8; D2 potentiator = -54; gsp antagonist = ?
# CCC(C)Nc1ccc(NC(C)CC)cc1 (stereo not given) across the screens: gsp agonist = nt; Six1-Eya2 inh = -1; CtBP-E1A inh = ?; D2 agonist = 7.4; D2 potentiator = -2; gsp antagonist = -11%
# Cc1cnc(NC(=O)COc2ccc3c(c2)CCC3)s1 across the screens: gsp agonist = 1%; Six1-Eya2 inh = -4; CtBP-E1A inh = -10; D2 agonist = -6.4; D2 potentiator = -8; gsp antagonist = 8%

# Remaining list, next part:
SMILES	gsp agonist	Six1-Eya2 inh	CtBP-E1A inh	D2 agonist	D2 potentiator	gsp antagonist
COc1ccc(C(=O)COC(=O)c2nn(C)c(=O)c3ccccc23)c(OC)c1	1%	0	-2	6.3	13	-1%
O=C(CSCC(=O)OCC(=O)N1CCN(C(=O)c2ccco2)CC1)Nc1ccc(Cl)cc1	-65%[inhibitor]	3	-9	-0.9	-20	nt
Cc1ccc(S(=O)(=O)N2CCOCC2)cc1NC(=O)CN(C)C1CCS(=O)(=O)C1 (stereo not given)	-8%	0	nt	-1.3	-11	-6%
COc1ccc(Nc2c([N+](=O)[O-])ccc3c2=NC2(CCCCC2)N=3)cc1	-17%	-78*	-76*	?	10	?
CC(NS(=O)(=O)c1ccc2c(c1)C(=O)c1cc(S(=O)(=O)NC(C)C(=O)O)ccc1-2)C(=O)O (stereo not given)	?	?	?	4.2	-4	5%
O=C(O)c1cc(Cl)nc2ccccc12	26%	4	0	-6.6	3	8%
CCOC(=O)c1oc2c(O)c(O)ccc2c(=O)c1-c1nncn1-c1ccccc1	?	-16	-5	-1.8	18	-2%
COc1ccccc1C(=O)NCC(=O)N/N=C/c1cc(Br)ccc1OCc1ccccc1	7%[15.4 µM]	-11	-12	0.7	1	-17%
O=C(Nc1ccc(F)cc1)c1ccccc1NC(=O)C1CCCCC1C(=O)O (stereo not given)	7%	-5	11	1.3	2	-12%
COc1ccc(C)cc1NC(=O)CCNS(=O)(=O)c1cccc(C(F)(F)F)c1	2%[15.4 µM]	15	-21	-0.5	-1	-14%
Cc1cccc(NC(=O)CNC(=O)COC(=O)CCS(=O)(=O)c2ccccc2)c1C	-8%	5	1	-8.2	-7	2%
CCOC(=O)c1c(-c2ccccc2)csc1NC(=O)C1CCCO1 (stereo not given)	-75%[inhibitor]	0	4	-5.4	-4	?

# Another view of 3 compounds above.
COc1ccccc1C(=O)NCC(=O)N/N=C/c1cc(Br)ccc1OCc1ccccc1
  gsp agonist: 7%[15.4 µM]
  Six1-Eya2 inh: -11
  CtBP-E1A inh: -12
  D2 agonist: 0.7
  D2 potentiator: 1
  gsp antagonist: -17%
CC(NS(=O)(=O)c1ccc2c(c1)C(=O)c1cc(S(=O)(=O)NC(C)C(=O)O)ccc1-2)C(=O)O (stereo not given)
  gsp agonist: ?
  Six1-Eya2 inh: ?
  CtBP-E1A inh: ?
  D2 agonist: 4.2
  D2 potentiator: -4
  gsp antagonist: 5%
O=C(Nc1ccc(F)cc1)c1ccccc1NC(=O)C1CCCCC1C(=O)O (stereo not given)
  gsp agonist: 7%
  Six1-Eya2 inh: -5
  CtBP-E1A inh: 11
  D2 agonist: 1.3
  D2 potentiator: 2
  gsp antagonist: -12%

# (cont.)
SMILES	gsp agonist	Six1-Eya2 inh	CtBP-E1A inh	D2 agonist	D2 potentiator	gsp antagonist
Cc1nn(Cc2ccccc2Cl)c2sc(C(=O)NCc3ccc4c(c3)OCO4)cc12	3%	0	-1	-1.5	-26	5%
Oc1ccc(/C=N/N2CCN(C3c4ccccc4-c4ccccc43)CC2)c(O)c1	-16%	?	-27	-1.1	-7	-17%
O=C(Nc1cccc(S(=O)(=O)Nc2ccccc2F)c1)c1ccc2ccccc2n1	18%	-1	-27	0.3	-6	?
CCn1c(-c2ccc3[nH]c(C)c(C)c3c2)n[nH]c1=S	-4%	-7	9	7.4	7	3%
COc1ccc(NS(=O)(=O)c2cc(NC(=O)CC(C)(C)C)ccc2N2CCCC2)cc1	-10%	-9	-3	3.0	-2	-3%
CCOC(=O)c1c(NC(=S)N2CCOCC2)sc(C)c1C	-13%[15.4 µM]	0	-1	-4.2	1	-3%
COc1cccc(CNS(=O)(=O)c2cc(CN3C(=O)c4cccnc4C3=O)ccc2OC)c1	6%	-4	nt	-1.6	1	4%
CC1(C)OC(=O)C(=CNc2cccc(C(=O)O)c2)C(=O)O1	-32%	8	6	-1.4	1	2%
CC(=O)Nc1ccc(S(=O)(=O)NNC(=O)c2ccc(S(=O)(=O)N3CCCCC3)cc2)cc1	2%[15.4 µM]	-2	5	-5.1	-1	3%
C=C(C)CN(CC)C(=O)CN1C(=O)NC2(CCCc3ccccc32)C1=O (stereo not given)	-28%	-1	-3	-1.9	-13	-11%
Nc1ccc(CCCC(=O)NCc2cccnc2)cc1	0%	6	9	-1.8	-8	nt
COc1ccc(NC(=O)CCCn2cc([N+](=O)[O-])cn2)cc1	-2%[15.4 µM]	1	17	-1.8	-5	15%
COC(=O)NNC(=O)c1ccc(Cl)cc1Cl	16%	3	15	-0.5	-9	8%
COc1ccc(S(=O)(=O)N2CCCCC2)cc1NC(=O)CN(C)C1CCCCC1	-19%	-5	-7	-2.2	-1	-10%
CC(C)(Oc1ccc(Br)cc1)C(=O)N1CCc2ccccc21	-10%	14	10	-1.2	-7	-1%
O=C(NCCCN1CCN(CCCNC(=O)c2cc([N+](=O)[O-])ccc2Cl)CC1)c1cc([N+](=O)[O-])ccc1Cl	-2%[15.4 µM]	-8	-15	-5.9	-10	10%
NC(=O)C(=O)NN=C1C2CC3CC(C2)CC1C3	22%[15.4 µM]	8	0	6.0	7	nt
CC1(C(=O)NS(=O)(=O)c2ccc(C#N)cc2)CCN1C(=O)C1(c2ccc(Cl)cc2)CCC1 (stereo not given)	nt	5	4	-1.4	-6	nt
CC1=NOC2(C1)/C(=N/O)CCC/C2=N\O (stereo not given)	-31%	-2	11	0.0	-6	10%
CCOC(=O)c1c(C)[nH]c(C(=O)Cn2nnc(-c3ccccc3Cl)n2)c1C	6%	5	-2	5.0	-4	8%
Cc1cccc(OCc2n[nH]c(=S)n2Cc2ccccc2)c1	-3%[15.4 µM]	-5	-12	-6.8	-4	-5%
CCOC(=O)NC(=O)/C(C#N)=N\Nc1cccc(OC)c1	5%[15.4 µM]	2	1	-3.2	2	-20%
Cc1cccc(C(=O)Nc2cc(NC(=O)c3cccs3)ccc2C)c1	-2%[15.4 µM]	3	6	-3.2	-5	12%
CN(C(=O)c1ccc(F)c(S(=O)(=O)N2CCOCC2)c1)C1CCCCC1	1%	1	nt	-4.2	0	2%
O=C(Nc1ccc(Br)cc1)c1ccccc1Br	?	6	-2	-5.8	-2	0%
COc1ccc(OCc2cc(C(=O)N(C)C(C)c3ccon3)no2)c(Cl)c1 (stereo not given)	-44%[inhibitor]	-4	2	2.3	-4	-5%
CCCCN1CC(N(C)CCN(C)C)CS1(=O)=O (stereo not given)	nt	6	10	-5.4	-6	nt
Cc1ccc2nc(N(CCCN(C)C)C(=O)c3ccc(Br)s3)sc2c1	18%[15.4 µM]	-4	-20	-5.0	-22	8%
Cc1ccccc1NC(=O)N1C2CCCC1CC(NC(=O)C(C)(C)C)C2 (stereo not given)	0%[15.4 µM]	0	7	-7.0	-38	11%
Cc1[nH]c2ccccc2c1/C=N/NC(=O)CCC(=O)Nc1ccccc1	-5%[15.4 µM]	-16	nt	5.5	-6	-1%
CC(C)(CNC(=O)c1cccc(S(=O)(=O)Nc2ccc(Br)cc2)c1)N1CCOCC1	-3%	-1	5	?	-25	-7%
COc1ccc(NC(C)=O)cc1S(=O)(=O)Nc1cccc(S(=O)(=O)NC2=NCCC2)c1	?	6	2	7.7	0	12%
COc1ccc(C(=O)OCC(=O)Nc2ccc(OC(F)F)cc2)c(OC)c1	-25%	3	-10	-0.3	-19	-12%
COc1ccc(-c2cccc(C(=O)N3CCOCC3)c2)cc1	22%[15.4 µM]	4	6	2.9	-6	-20%
Cc1ccccc1C1CC(c2ccc(F)cc2)Nc2nc(N)nn21 (stereo not given)	5%	4	-24	-2.9	-6	3%
O=C(CCCN1C(=O)/C(=C/c2ccc(F)cc2)SC1=S)NC1CCS(=O)(=O)C1 (stereo not given)	9%	-8	-19	10	11	-13%
COc1cc(NC(=O)c2ccc(C(C)(C)C)cc2)c(OC)cc1NC(=O)CN1CCCCC1	-14%[15.4 µM]	2	0	-5.8	-43	nt
CN(C)c1ccc(/C=[N+](\[O-])C2SC(=S)N(C)C2(C)C)cc1 (stereo not given)	-32%[inhibitor]	-2	3	-2.1	-24	-8%
CN(c1ncnc(N)c1[N+](=O)[O-])C1CCS(=O)(=O)C1 (stereo not given)	7%	6	nt	3.1	-11	6%
O=C(C1CCCN(S(=O)(=O)c2cnc[nH]2)C1)N1CCN(c2ccc(Cl)cc2)CC1 (stereo not given)	?	7	-21	-0.8	1	1%

# Screens deposited in PubChem by National Center for Advancing Translational Sciences (NCATS).
